MLL AF4-AF9 inh – MLL-AF4/AF9 protein interaction inhibition; P42568; inhibition, % at 10 µM; AlphaScreen, biotin-AF4 peptide binding to FLAG-AF9; 0.47% of 350,000 active;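 active means every replicate reaching a set inhibition limit, whatever the replicate mean, cut at about 25% in these data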;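 further: 0% = plate neutral control median and 100% = total signal loss; the record names both 10 and 1 µM as test concentration; the first replicate is given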
Target sequence (P42568 whole entry, looked up): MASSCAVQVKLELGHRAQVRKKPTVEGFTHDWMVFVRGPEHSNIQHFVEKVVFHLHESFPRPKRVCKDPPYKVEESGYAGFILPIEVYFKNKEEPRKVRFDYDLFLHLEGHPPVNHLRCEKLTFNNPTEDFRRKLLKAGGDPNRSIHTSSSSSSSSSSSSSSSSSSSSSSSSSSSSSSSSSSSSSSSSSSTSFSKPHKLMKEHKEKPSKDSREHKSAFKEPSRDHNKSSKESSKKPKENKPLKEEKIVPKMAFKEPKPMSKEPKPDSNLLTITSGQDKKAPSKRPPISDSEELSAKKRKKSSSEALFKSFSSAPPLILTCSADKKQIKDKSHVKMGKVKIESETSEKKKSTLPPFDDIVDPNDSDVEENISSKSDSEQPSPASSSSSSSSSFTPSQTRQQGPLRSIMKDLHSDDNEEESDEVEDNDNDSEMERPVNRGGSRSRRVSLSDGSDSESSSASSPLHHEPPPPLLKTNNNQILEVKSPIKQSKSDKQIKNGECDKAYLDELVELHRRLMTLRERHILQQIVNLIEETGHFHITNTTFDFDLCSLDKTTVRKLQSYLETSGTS
FGF22 binding – FGF22 (human) thermal shift binding | Q9HCT0 | calls only at 9.99 µM | recombinant FGF22 thermal shift, SYPRO orange fluorescence; percent of sucrose octasulfate shift, DMSO zero | 1.5% of 340,000 active;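 active means melting point raised past a set limit in the mean and every replicate; three in four hits are not shown here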
Target sequence (Q9HCT0 whole entry, looked up): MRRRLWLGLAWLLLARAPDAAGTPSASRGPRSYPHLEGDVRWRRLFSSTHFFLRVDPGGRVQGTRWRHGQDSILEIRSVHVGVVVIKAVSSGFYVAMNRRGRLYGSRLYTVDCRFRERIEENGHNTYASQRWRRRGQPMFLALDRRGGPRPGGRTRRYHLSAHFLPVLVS
* = called active by the depositor; i = inactive. Not all compounds are listed, so the mix of outcomes need not match the whole.

MLL AF4-AF9 inh	FGF22 binding	Compound
-0.5	i	C[C@@H]1CN([C@@H](C)CO)C(=O)c2cc(NS(=O)(=O)c3ccccc3)ccc2O[C@@H](C)CCCCO[C@@H]1CN(C)S(=O)(=O)c1ccc(F)cc1
-1.8	i	COCC(=O)Nc1ccc2c(c1)C(=O)N(C)C[C@@H](OC)[C@@H](C)CN(C(=O)NC(C)C)[C@H](C)CO2
3.1	i	C[C@H](CO)N1C[C@H](C)[C@H](CN(C)Cc2ccc(-c3ccccc3)cc2)Oc2ccc(NS(=O)(=O)c3cccs3)cc2C1=O
-0.2	i	O=C(C[C@@H]1CC[C@@H]2[C@H](COC[C@H](O)CN2C(=O)c2ccccc2F)O1)N1CCCCC1
4.3	i	CCC(=O)N(C)C[C@@H]1Oc2cc(C#CC3CCCCC3)ccc2S(=O)(=O)N([C@@H](C)CO)C[C@H]1C
-1.2	i	C[C@@H]1CCCCO[C@H](CN(C)C(=O)c2ccncc2)[C@@H](C)CN([C@H](C)CO)C(=O)c2cc(NS(=O)(=O)c3ccc(F)cc3)ccc2O1
2.4	i	Cc1noc(C)c1S(=O)(=O)Nc1ccc2c(c1)CC(=O)N([C@@H](C)CO)C[C@H](C)[C@@H](CN(C)S(=O)(=O)c1cn(C)cn1)O2
-0.3	i	CCCNC(=O)N1CC(=O)N2[C@H](CO)[C@@H](c3ccc(C#Cc4cccc(OC)c4)cc3)[C@H]2C1
-2.8	i	COCC#Cc1ccc2c(c1)O[C@H](CN(C)S(C)(=O)=O)[C@@H](C)CN([C@H](C)CO)S2(=O)=O
8.1	i	C[C@@H]1CN([C@H](C)CO)S(=O)(=O)c2ccc(C#CC3CCCC3)cc2O[C@H]1CN(C)Cc1cccnc1
-0.3	i	CCCC#Cc1cnc2c(c1)C(=O)N([C@H](C)CO)C[C@@H](C)[C@H](CN(C)S(=O)(=O)c1ccccc1)O2
0.5	i	C[C@H](CO)N1C[C@H](C)[C@H](CN(C)Cc2ccc3c(c2)OCO3)Oc2c(NS(=O)(=O)c3ccccc3)cccc2C1=O
-3.1	i	C[C@@H]1CN([C@H](C)CO)C(=O)c2cc(N(C)C)ccc2O[C@@H](C)CCCCO[C@@H]1CN(C)C(=O)NC1CCCCC1
-3.9	i	CCCC#Cc1cnc2c(c1)C(=O)N([C@H](C)CO)C[C@@H](C)[C@H](CN(C)S(=O)(=O)c1cn(C)cn1)O2
-1.9	i	C[C@@H]1CN([C@@H](C)CO)C(=O)c2cccc(NC(=O)c3ccncc3)c2O[C@H]1CN(C)S(=O)(=O)c1ccc(F)cc1
9.1	i	C[C@H](CO)N1C[C@H](C)[C@H](CN(C)CC2CCCCC2)Oc2ccc(NC(=O)Nc3ccc4c(c3)OCO4)cc2CC1=O

2 entries from above, with values under each structure:
Under each structure: MLL AF4-AF9 inh | FGF22 binding
> CCCC#Cc1cnc2c(c1)C(=O)N([C@H](C)CO)C[C@@H](C)[C@H](CN(C)S(=O)(=O)c1cn(C)cn1)O2
→ -3.9 | i
> C[C@@H]1CN([C@@H](C)CO)C(=O)c2cccc(NC(=O)c3ccncc3)c2O[C@H]1CN(C)S(=O)(=O)c1ccc(F)cc1
→ -1.9 | i

(listing goes on)
MLL AF4-AF9 inh	FGF22 binding	Compound
5.2	i	COc1cccc(S(=O)(=O)N2C[C@H](O)COC[C@@H]3O[C@@H](CC(=O)N4CCN(c5ccccc5)CC4)CC[C@H]32)c1
-1.2	i	CO[C@@H]1CN(C)C(=O)c2ccc(NC(=O)C3CCC3)cc2OC[C@@H](C)N(C)C[C@H]1C
6.3	i	C[C@@H]1CCCCO[C@H](CN(C)CC2CCCCC2)[C@H](C)CN([C@@H](C)CO)C(=O)c2cc(NC(=O)Nc3ccc(F)cc3)ccc2O1
-4.5	i	COCC#Cc1cnc2c(c1)C(=O)N([C@@H](C)CO)C[C@H](C)[C@H](CN(C)C(=O)Nc1ccccc1OC)O2
0.4	i	CC(C)NC(=O)N(C)C[C@@H]1Oc2c(NC(=O)Nc3cccc4ccccc34)cccc2C(=O)N([C@@H](C)CO)C[C@H]1C
-1.8	i	CC(C)NC(=O)N(C)C[C@H]1Oc2ccc(NC(=O)CCCN(C)C)cc2C(=O)N([C@@H](C)CO)C[C@@H]1C
-1.3	i	Cc1noc(C)c1NC(=O)N(C)C[C@H]1OCCCC[C@@H](C)Oc2ccc(NC(=O)CCC(F)(F)F)cc2C(=O)N([C@H](C)CO)C[C@H]1C
-2.2	i	CCCC#Cc1ccc([C@@H]2[C@@H](C#N)N(C(=O)C3CCCC3)[C@@H]2CO)cc1
-3.6	i	CCCNC(=O)N(C)C[C@H]1Oc2ncc(-c3ccncc3)cc2C(=O)N([C@@H](C)CO)C[C@@H]1C
-1.5	i	Cc1ccc(S(=O)(=O)Nc2cccc3c2O[C@@H](CN(C)C(=O)Nc2ccc(F)cc2)[C@@H](C)CN([C@@H](C)CO)C3=O)cc1
-1.0	i	CC(C)NC(=O)Nc1ccc2c(c1)CC(=O)N([C@@H](C)CO)C[C@H](C)[C@@H](CN(C)C(=O)Nc1ccc(C(F)(F)F)cc1)O2
1.9	i	COc1ccc(NC(=O)Nc2ccc3c(c2)C(=O)N([C@H](C)CO)C[C@H](C)[C@H](CN(C)S(=O)(=O)c2ccc(Cl)cc2)O3)cc1
0.4	i	CCNC(=O)C[C@@H]1CC[C@H]2[C@H](COc3ccc(NC(=O)c4ccc(F)c(F)c4)cc3C(=O)N2C)O1
-3.5	i	CN1C(=O)c2cc(NS(C)(=O)=O)ccc2OC[C@@H]2O[C@@H](CC(=O)O)CC[C@H]21
-3.3	i	O=C(C[C@@H]1CC[C@H](NC(=O)Cc2ccccn2)[C@H](CO)O1)NCCc1ccccc1
-6.7	i	C[C@H](CO)N1C[C@H](C)[C@@H](CN(C)S(=O)(=O)c2cn(C)cn2)Oc2ncc(C3=CCCC3)cc2C1=O

Exported as a markdown table: six of the compounds above
| molecule | MLL AF4-AF9 inh | FGF22 binding |
| --- | --- | --- |
| CCCNC(=O)N1CC(=O)N2[C@H](CO)[C@@H](c3ccc(C#Cc4cccc(OC)c4)cc3)[C@H]2C1 | -0.3 | i |
| CCCC#Cc1cnc2c(c1)C(=O)N([C@H](C)CO)C[C@@H](C)[C@H](CN(C)S(=O)(=O)c1ccccc1)O2 | -0.3 | i |
| C[C@@H]1CCCCO[C@H](CN(C)CC2CCCCC2)[C@H](C)CN([C@@H](C)CO)C(=O)c2cc(NC(=O)Nc3ccc(F)cc3)ccc2O1 | 6.3 | i |
| O=C(C[C@@H]1CC[C@@H]2[C@H](COC[C@H](O)CN2C(=O)c2ccccc2F)O1)N1CCCCC1 | -0.2 | i |
| COc1ccc(NC(=O)Nc2ccc3c(c2)C(=O)N([C@H](C)CO)C[C@H](C)[C@H](CN(C)S(=O)(=O)c2ccc(Cl)cc2)O3)cc1 | 1.9 | i |
| CO[C@@H]1CN(C)C(=O)c2ccc(NC(=O)C3CCC3)cc2OC[C@@H](C)N(C)C[C@H]1C | -1.2 | i |

Carrying on.
MLL AF4-AF9 inh	FGF22 binding	Compound
-1.8	i	COc1ccc(S(=O)(=O)N(C)C[C@H]2Oc3ccc(NC(=O)CCCCCC(=O)Nc4ccccc4N)cc3CC(=O)N([C@@H](C)CO)C[C@@H]2C)cc1
3.1	i	CCCN(C)C[C@H]1Oc2cc(-c3ccc(OC)cc3)ccc2S(=O)(=O)N([C@H](C)CO)C[C@H]1C
3.3	i	C[C@@H]1CN([C@@H](C)CO)C(=O)c2cc(C#Cc3ccccc3F)cnc2O[C@H]1CN(C)C(=O)c1ccc2c(c1)OCO2
-0.5	i	COc1ccc(CN(C)C[C@H]2OCCCC[C@@H](C)Oc3ccc(NC(=O)Nc4c(C)noc4C)cc3C(=O)N([C@@H](C)CO)C[C@@H]2C)cc1
1.6	i	COc1ccc(NC(=O)N(C)C[C@@H]2OCCCC[C@H](C)Oc3ccc(NC(=O)CCC(F)(F)F)cc3C(=O)N([C@H](C)CO)C[C@@H]2C)cc1
1.6	i	COc1ccccc1S(=O)(=O)N[C@H]1CC[C@H](CC(=O)NCc2cccc(F)c2)O[C@H]1CO
-23	i	CNC[C@H]1Oc2c(NC(=O)C3CCOCC3)cccc2C(=O)N([C@H](C)CO)C[C@H]1C
-5.1	i	CC(C)NC(=O)N(C)C[C@@H]1OCCCC[C@@H](C)Oc2ccc(NC(=O)Nc3ccc(F)cc3)cc2C(=O)N([C@@H](C)CO)C[C@H]1C
-12	i	C[C@H](CO)N1C[C@H](C)[C@@H](CN(C)C(=O)Nc2ccccc2)Oc2ccc(NC(=O)Nc3ccccc3)cc2CC1=O
-1.3	i	C[C@@H]1CN([C@H](C)CO)S(=O)(=O)c2ccc(C3=CCCC3)cc2O[C@@H]1CN(C)C(=O)c1ccccn1
-6.6	i	C[C@@H]1CN([C@H](C)CO)S(=O)(=O)c2ccc(C#Cc3ccccc3F)cc2O[C@H]1CN(C)C(=O)Cc1ccccc1
-22	i	C[C@@H]1CN([C@H](C)CO)C(=O)c2cc(C3=CCCC3)cnc2O[C@@H]1CN(C)C(=O)NC1CCCC1
-0.8	i	COc1ccc(S(=O)(=O)N(C)C[C@@H]2OCCCC[C@@H](C)Oc3ccc(NS(C)(=O)=O)cc3C(=O)N([C@H](C)CO)C[C@H]2C)cc1
2.9	i	C/C=C/c1ccc([C@@H]2[C@@H](C#N)N(c3ncc(CC)s3)[C@@H]2CO)cc1
-0.9	i	Cc1ccc(S(=O)(=O)N(C)C[C@@H]2Oc3ncc(C#Cc4cccc(F)c4)cc3C(=O)N([C@H](C)CO)C[C@@H]2C)cc1
-13	i	CN(C)CC(=O)N[C@@H]1CC[C@@H](CCn2cc(CN(C)C)nn2)O[C@H]1CO
-0.1	i	CCC(=O)Nc1ccc2c(c1)C(=O)N(C)C[C@@H](OC)[C@@H](C)CN(C(=O)c1cnccn1)[C@@H](C)CO2
-1.0	i	Cc1ccc(S(=O)(=O)NCC[C@H]2CC[C@H](NC(=O)c3cnccn3)[C@@H](CO)O2)cc1
9.3	i	COCC(=O)Nc1ccc2c(c1)C(=O)N(C)C[C@@H](OC)[C@@H](C)CN(C(=O)c1ccncc1)[C@H](C)CO2
0.2	i	CCCNC(=O)C[C@@H]1CC[C@H]2[C@@H](COc3ccc(NC(=O)Cc4ccccc4)cc3C(=O)N2C)O1
-0.1	i	C[C@@H]1CCCCO[C@@H](CN(C)C(=O)CCCN(C)C)[C@H](C)CN([C@@H](C)CO)C(=O)c2cc(NS(=O)(=O)c3ccc(F)cc3)ccc2O1
0.4	i	CCC(=O)Nc1ccc2c(c1)C(=O)N(C)C[C@H](OC)[C@H](C)CN(C(=O)Cc1ccccn1)[C@H](C)CO2
-2.0	i	Cc1noc(C)c1NC(=O)Nc1ccc2c(c1)C(=O)N([C@H](C)CO)C[C@H](C)[C@H](CN(C)CC1CCCCC1)OCCCC[C@@H](C)O2
5.1	i	CCS(=O)(=O)N1CC(=O)N2[C@H](CO)[C@@H](c3ccc(C#Cc4cccc(F)c4)cc3)[C@H]2C1
1.6	i	C[C@H](CO)N1C[C@H](C)[C@@H](CN(C)Cc2ccc(C(F)(F)F)cc2)Oc2ccc(NC(=O)CCN3CCOCC3)cc2C1=O
-2.3	i	CO[C@@H]1CN(C)C(=O)c2cc(NS(=O)(=O)c3ccccc3Cl)ccc2OC[C@H](C)NC[C@H]1C
-2.5	i	C[C@@H]1CN([C@@H](C)CO)S(=O)(=O)c2ccc(C#CC(C)(C)O)cc2O[C@@H]1CN(C)C(=O)CN(C)C
-0.7	i	C[C@H]1CN([C@@H](C)CO)C(=O)c2cc(-c3cncnc3)cnc2O[C@@H]1CN(C)Cc1cncnc1
2.5	i	COc1ccc(NC(=O)Nc2ccc3c(c2)CC(=O)N([C@@H](C)CO)C[C@@H](C)[C@H](CN(C)Cc2ccc(Oc4ccccc4)cc2)O3)cc1
0.4	i	C[C@@H]1CCCCO[C@H](CN(C)S(=O)(=O)c2ccc(Cl)cc2)[C@H](C)CN([C@@H](C)CO)C(=O)c2cc(NC(=O)c3ccccc3)ccc2O1
-0.1	i	C[C@H](NC(=O)C[C@@H]1C[C@H]2c3cc(NC(=O)C4CCOCC4)ccc3O[C@H]2[C@H](CO)O1)c1ccccc1
0.9	i	CN(C)CC(=O)N[C@H]1CC[C@H](CCNC(=O)C2CCCC2)O[C@H]1CO
-1.7	i	O=C(C[C@H]1C=C[C@@H](NC(=O)NC2CCCCC2)[C@@H](CO)O1)NCc1ccc(F)cc1
-1.2	i	CO[C@@H]1CN(C)C(=O)c2ccc(NS(C)(=O)=O)cc2OC[C@H](C)N(CC2CC2)C[C@H]1C
-3.4	i	C[C@@H]1CN([C@@H](C)CO)C(=O)CCCn2cc(nn2)CO[C@@H]1CN(C)S(=O)(=O)c1cccc(C#N)c1
1.8	i	CO[C@@H]1CN(C)C(=O)c2cc(NS(=O)(=O)c3ccccc3C)ccc2OC[C@@H](C)N(S(=O)(=O)c2ccccc2)C[C@H]1C
1.1	i	C[C@@H]1CN([C@@H](C)CO)S(=O)(=O)c2ccc(-c3cccnc3)cc2O[C@@H]1CN(C)CC1CCOCC1
-3.8	i	CN(C)CC(=O)N1CC2(C1)[C@H](c1ccccc1)[C@@H](CO)N2C(=O)C1CCCCC1
-4.7	i	O=C(N[C@@H]1CC[C@@H](CCn2cc(-c3ccccc3)nn2)O[C@H]1CO)c1cnccn1
0.2	i	C[C@H]1CN([C@@H](C)CO)C(=O)c2cc(NC(=O)Nc3ccccc3)ccc2O[C@H]1CN(C)CC1CCCCC1
0.2	i	Cc1nnc2nc(N)[nH]n2c1=O
4.3	i	COCC(=O)NC[C@@H]1[C@H](c2ccc(C3=CCCC3)cc2)[C@H](CO)N1C(C)=O
-2.0	i	COc1cccc(-c2cnc3c(c2)C(=O)N([C@H](C)CO)C[C@H](C)[C@@H](CN(C)Cc2ccncc2)O3)c1

Bioassay records deposited in PubChem BioAssay by Broad Institute.
